Screening data as filed in PubChem BioAssay.
PV pol inh – inhibitors of poliovirus RNA polymerase binding and polymerization | actives 0.66% (n = 150,000) | P03300 | % elongation, % (compound at 16.7 µg/mL) | poliovirus polymerase elongation, fluorescence polarization; hits give low values; in the data active = % elongation below about 90%; also: some results filed as inactive read as strong as hits
Target sequence (P03300 1749-2209 limits assumed): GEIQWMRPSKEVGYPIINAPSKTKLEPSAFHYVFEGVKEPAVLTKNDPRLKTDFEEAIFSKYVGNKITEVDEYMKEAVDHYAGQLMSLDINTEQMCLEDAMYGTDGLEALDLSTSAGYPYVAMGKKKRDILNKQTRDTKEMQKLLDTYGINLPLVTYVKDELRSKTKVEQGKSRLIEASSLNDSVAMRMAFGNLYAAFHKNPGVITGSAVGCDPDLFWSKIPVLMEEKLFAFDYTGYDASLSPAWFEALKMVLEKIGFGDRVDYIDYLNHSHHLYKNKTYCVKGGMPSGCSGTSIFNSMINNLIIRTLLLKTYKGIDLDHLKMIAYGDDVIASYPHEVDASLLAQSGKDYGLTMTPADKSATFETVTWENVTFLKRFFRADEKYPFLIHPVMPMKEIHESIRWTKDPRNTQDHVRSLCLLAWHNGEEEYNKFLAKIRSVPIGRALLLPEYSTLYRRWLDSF
Mtb MbtI inh – inhibitors of Mycobacterium tuberculosis siderophore enzyme MbtI. purified MbtI enzyme, fluorescence intensity read-out. actives 0.89% (n = 100,000). inhibition, %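 (about 17 µg/mL by stock and volumes)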. AID 493033;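 active = above 50% in both replicates, above 80% if mildly self-fluorescent; inactive = the rest, strongly fluorescent compounds included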;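 also: 0% = mean of negative and 100% = mean of positive controls; one replicate is shown; some compounds called inactive have numbers as strong as hits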
Target sequence (P9WFX0 whole entry, looked up): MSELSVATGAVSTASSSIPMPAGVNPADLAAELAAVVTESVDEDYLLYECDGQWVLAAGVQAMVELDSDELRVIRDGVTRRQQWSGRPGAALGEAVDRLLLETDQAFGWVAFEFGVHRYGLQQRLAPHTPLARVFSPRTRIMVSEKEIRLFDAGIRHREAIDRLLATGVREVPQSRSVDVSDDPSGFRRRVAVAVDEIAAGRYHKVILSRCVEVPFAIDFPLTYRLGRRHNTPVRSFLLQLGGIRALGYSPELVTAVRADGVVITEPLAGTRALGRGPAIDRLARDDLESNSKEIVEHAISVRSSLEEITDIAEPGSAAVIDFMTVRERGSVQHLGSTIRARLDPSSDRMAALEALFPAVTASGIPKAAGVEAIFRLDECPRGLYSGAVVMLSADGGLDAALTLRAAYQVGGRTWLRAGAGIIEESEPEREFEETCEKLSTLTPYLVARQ
Mtb MenB inh – blocks the Mycobacterium tuberculosis MenB enzyme; MenB enzyme assay, absorbance read-out; some hits fall short of the stated cut; inhibition, %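 (about 12 µg/mL by stock and volumes)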; actives 0.43% (n = 100,000);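 active = mean of two replicates above 30%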;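 also: 0% = no compound and 100% = wells with inactive enzyme; the first replicate is given; strong numbers were not always called active; inactives centre near -10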
PV pol inh intensity – second read-out of PV pol inh, no call of its own (marks repeat the call); % elongation; measured here: total intensity read-out; formula for this scale not given here;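 total fluorescence in place of polarization; lower means less elongation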
Numbers without * were called inactive; . = no result given.

SMILES	PV pol inh	PV pol inh intensity	Mtb MbtI inh	Mtb MenB inh
CCCCNC(=O)c1ccc2c(=O)n(C3CCCC3)c(=S)[nH]c2c1	102	101	2	-11
CCOC(=O)Nc1ccc2c(c1)N(C(=O)CN1CCOCC1)c1ccccc1CC2	103	104	-2	-23
Cc1ccc(-c2nnc(-c3ccc(NC(=O)C(C)C)cc3)o2)cc1	100	100	-72	-28
COc1ccc(CN(C)C(=O)c2cccc(F)c2)c(OC)c1OC	110	106	6	5
COc1cccc(NC(=O)c2ccc(-c3cccc(Cl)c3C)o2)c1	105	107	45	-43
COc1cccc(-c2cc(C(=O)N3CCN(C(=O)c4cc(OC)c(OC)c(OC)c4)CC3)[nH]n2)c1	105	99	-7	-22
COc1ccccc1/C=N/NC(=O)CNc1ccccc1OC	99	102	2	-10
CCCCc1ccc(NC(=O)CSc2nc(C3CCCCC3)c(C#N)c(=O)[nH]2)c(C)c1	98	101	1	-13
CCOc1ccc(CCN2CNc3c(-c4cccc(Cl)c4)c(C)nn3C2)cc1	101	104	-3	-6
CC12CC(C(C#N)=C(N)N1)c1ccccc1O2 (configuration not stated)	104	101	-9	-44
O=S(=O)(c1ccc2nc(-c3cccs3)c(-c3cccs3)nc2c1)N1CCOCC1	111	121	60	-102
COc1cc(CO)cc(Br)c1OCc1cccnc1	105	104	-4	-28
CC(C)Cc1ccc(C(C)NC(C)CC(N)=O)cc1 (configuration not stated)	103	106	-8	5
N#Cc1c(NC(=O)COCc2cc(-c3ccco3)on2)sc2c1CCCC2	100	104	71	-13
CC(OC(=O)c1cccnc1)C(=O)Nc1cc(Cl)cc(Cl)c1 (configuration not stated)	101	95	-9	.
Cc1ccc(C)n1-c1ccon1	107	111	-21	-6
CCc1ccc(OCc2nnc(SC(C)C(=O)OC)n2C)cc1 (configuration not stated)	102	103	-8	-48
O=S1(=O)CCC(NC(=S)N2CCOCC2)C1 (configuration not stated)	100	101	-1	9
COc1ccccc1OCC(=O)Nc1cccc(C)n1	101	101	-11	-36
Cc1ccc(C(=O)CC(C(=O)O)n2ccc(C)n2)cc1 (configuration not stated)	101	102	-6	-12
Cc1ccccc1-c1nc(NC(=O)CSc2ncnc3sc4c(c23)CCC(C)C4)ns1 (configuration not stated)	101	105	-8	-17
O=C(CSc1nc2ccccc2c(=O)n1Cc1ccco1)N(c1ccccc1)c1ccccc1	107	99	0	-22
COC(=O)c1c2c(nc3ccccc13)CCCC2	99	97	1	.
CC(=O)N1CCN(CCN2C(=O)C3C4c5ccccc5C(c5ccccc54)C3C2=O)CC1 (configuration not stated)	100	102	-10	30
CCc1ccc(S(=O)(=O)c2c(C(=O)c3ccccc3)cnc3cc4c(cc23)OCCO4)cc1	101	105	10	-9
Cc1oc2c(c1C(=O)NCc1ccccc1)C(=O)c1ccccc1C2=O	101	104	13	-2
CSC(=CC(=O)C(C)(C)C)SC	105	101	16	-4
CC(Cn1c(C(C)C)nc2ccccc21)C(=O)O (configuration not stated)	99	96	.	-14
O=C1CCCN1CCC1CCN(C(=O)Nc2ccccc2)CC1	101	102	-10	-24
CSc1cccc(NC(=S)NC(C)(C)C)c1	87	102	-1	-18
CCOc1ccc(C2c3c(oc4ccc(C)cc4c3=O)C(=O)N2CCN(CC)CC)cc1OC (configuration not stated)	100	107	1	-2
COC(=O)c1ccc2c(=O)[nH]c(COC(=O)c3sc4nc5n(c(=O)c4c3C)CCC5)nc2c1	108	122	-6	-13
CN1CCN(C(=O)C(F)(F)C2(F)OC(F)(F)C(F)(F)C2(F)F)CC1 (configuration not stated)	103	104	7	-21
COc1cc2c(cc1OC)C(c1ccccc1)CC(=O)N2 (configuration not stated)	103	98	12	-7
CCN(C(=O)c1c(Oc2ccc(F)cc2)nc(C)c(Cl)c1C)c1ccccc1	107	105	.	-19
CC1C/C(=C/c2ccsc2)C(=O)/C(=C/c2ccsc2)C1 (configuration not stated)	99	101	17	-11
CCOc1ccc(C(=O)Nc2cc(C)nn2-c2nc3ccccc3n2Cc2ccc(C#N)cc2)cc1	99	106	-3	-16
Cc1cc2c(c(=O)n1CCN1CCOCC1)C(c1cccc(F)c1)C(C#N)=C(N)O2 (configuration not stated)	104	108	7	-13
N#CC(C#N)=Cc1ccc(-c2cccc(C(F)(F)F)c2)o1	100	103	0	-11
CN(C(=O)C1CCCCN1S(=O)(=O)c1ccccc1)c1ccccc1 (configuration not stated)	102	109	-3	-3
COc1ccc(C(=O)C(C)Sc2nnc(-c3cccc(C)c3)n2Cc2ccco2)c(OC)c1 (configuration not stated)	99	104	10	-20
O=C(O)CCc1ccc(-c2ccc(F)cc2)n1NC(=O)c1ccco1	102	105	-2	4
C=CCC(=O)c1sc(NC)c(C#N)c1N	109	116	.	-8
O=C(NCCNCC(O)COc1ccc(O)cc1)N1CCOCC1 (configuration not stated)	100	100	-21	-6
O=C(CN1CCCCCC1)Nc1nncs1	101	103	-9	6
CC(C)CNC(=O)C(C)Oc1ccccc1 (configuration not stated)	98	103	-6	5
Cc1c(CCC(=O)NCc2ccccc2)c(=O)oc2cc(O)ccc12	103	97	94	-20
N#Cc1cnc2c(-c3ccccc3)c(COc3ccccc3)nn2c1N	102	105	11	-15
CCC(NC(=O)c1ccccc1NC(=O)c1ccco1)C(=O)NC1CCCCC1 (configuration not stated)	102	103	-3	-3
FC(F)(F)c1cc(Br)ccc1N=Cc1ccccc1	109	110	-6	-27
COC(=O)CN1C(=O)C2(C(C(=O)OC)=C(N)Oc3c2c(=O)oc2ccccc32)c2ccccc21 (configuration not stated)	102	101	-8	-12
O=C(CSc1nc2ccc(NC(=O)c3ccccc3F)cc2s1)NC1CC1	106	115	.	7
CC(C)(C)NC(=S)Nc1cccc(Cl)c1	101	104	-7	-15
Cc1nn(-c2ccccc2)c2c1CC1(C(=O)c3ccccc3C1=O)C1CCCN21 (configuration not stated)	109	116	-15	-5
O=C1N=c2ccccc2=C1c1[nH]c(=S)n(-c2ccccc2)c1O	105	111	.	-9
Cc1cc(-c2ccc(C(C)C)c(S(=O)(=O)N3CCN(c4ccccc4F)CC3)c2)on1	101	101	-9	-20
CSc1cccc(C(=O)Nc2cc(C)on2)c1	104	109	-2	-19
CC1CCc2c(sc(NC(=O)CCN3CCOCC3)c2C#N)C1 (configuration not stated)	103	100	4	8
CCN(CC)P(=O)(c1nccn1C)N(CC)CC	96	94	10	-10
COC(=O)CCn1cnc(-c2ccccc2)c1-c1ccccc1	104	109	-34	-10
(list continues)
SMILES	PV pol inh	PV pol inh intensity	Mtb MbtI inh	Mtb MenB inh
COc1ccccc1C(=O)NC(=O)CSc1nncn1C(C)C	102	104	6	8
CCOC(=O)c1s/c(=N\C(=S)NC(=O)CN2C(=O)CCC2=O)n(C)c1C	99	100	12	-30
COc1ccccc1OC(=O)Nc1ccccc1	103	103	-5	-28
CCOC(=O)N1CCN(C(=O)CSC2=C(C#N)C(C)(C)C(C#N)C(=O)N2)CC1 (configuration not stated)	107	111	-2	1
CCN1CCN(CCC(=O)Nc2ccc(OC)cc2)CC1	99	104	-6	-9
Cc1ccc(-c2ccc(OC(F)F)cc2)cc1	99	107	-8	-5
CCOC(=O)c1oc2ccccc2c1COC(=O)c1ccc(OCC)c(OC)c1	97	95	-6	13
COc1ccc(C(=O)N2CCC2)cc1S(=O)(=O)NCc1ccc(Cl)cc1	105	104	-5	2
O=S1(=O)N=C(N/N=C/c2ccccc2F)c2ccccc21	101	102	0	-11
COC(=O)c1ccc(N(Cc2ccccc2)S(=O)(=O)c2ccccc2)cc1	101	108	-14	-18
C=CCNC(=O)c1cc(-c2ccc(OC)cc2)on1	101	108	-11	-9
c1ccc2[nH]c(NC3=NCCC3)nc2c1	115	120	-4	4
CS(=O)(=O)N1CCCc2cc(C(=O)N3CCOCC3)ccc21	103	102	-11	6
Cc1cc(C(=O)CSc2nc3ccccc3n2-c2ccccc2)c(C)n1-c1nccs1	109	115	17	22
CCN1/C(=C2\C(=O)N(C)C(=S)N2c2ccccc2)C=Cc2ccccc21	103	106	-1	-10
COc1ccccc1CC(=O)NC1CCCC1	104	110	.	-10
OCc1nc2ccccc2n1CCOc1cccc(Cl)c1	98	100	-4	-19
CN(CCC(=O)Nc1ccc2c(c1)OCO2)Cc1ccccc1	107	105	.	-3
COc1cc(/C=C/C(=O)C(C)(C)O)cc(OC)c1OC	100	101	14	-78
O=C(/C=C/c1ccc(Cl)cc1)OCC(=O)N1CCCCC1	102	110	-8	.
CC1Cc2ccccc2N1C(=O)c1cc2n(n1)C(C(F)(F)F)CC(c1ccco1)N2 (configuration not stated)	103	99	3	-45
CC1(C)CC(=O)C=C(Nc2ccc(C(=O)O)cc2)C1	105	107	1	.
CSc1ncc(C(=O)NC(C)C)c(-c2ccccc2)n1	100	101	-8	-10
O=C(O)CSCc1cn2ccccc2n1	100	103	-17	.

One compound at a time (already shown).
CN(CCC(=O)Nc1ccc2c(c1)OCO2)Cc1ccccc1 is entered as PV pol inh = 107; PV pol inh intensity = 105; Mtb MbtI inh = .; Mtb MenB inh = -3
CS(=O)(=O)N1CCCc2cc(C(=O)N3CCOCC3)ccc21 is entered as PV pol inh = 103; PV pol inh intensity = 102; Mtb MbtI inh = -11; Mtb MenB inh = 6

Other structures:
SMILES	PV pol inh	PV pol inh intensity	Mtb MbtI inh	Mtb MenB inh
CN(C(=O)COC(=O)C1(c2ccccc2F)CCCC1)c1ccccc1	106	98	0	.
O=C1/C(=C\c2ccc(N3CCCC3)cc2)N2CCC1CC2	108	111	1	-282
CC(=O)N1CCN2C(=O)C1CCCC(=O)c1cc(C3CCCCC3)ccc12 (configuration not stated)	105	110	.	0
COCCNc1c(-c2ccc(OC)c(OC)c2)nc2ccc(Cl)cn12	103	102	-19	-16
N#C/C(=C/c1cn(Cc2ccc(C(=O)O)o2)c2ccccc12)c1ccc(F)cc1	100	103	66	-93
O=C(c1ccc(Br)s1)N1CCCC1	99	103	-3	-8
CN1C(=O)S/C(=C\c2ccc(I)cc2)C1=O	99	100	4	-31
CCCCc1nc2ccccc2c(N)c1CC (tested in a mixture with another compound)	101	114	.	-5
Cc1csc(=O)n1CCC(=O)OCc1cc(=O)n2cc(Br)ccc2n1	102	97	15	6
COc1cc(/C=C2\SC(=S)NC2=O)ccc1OCc1cccc2ccccc12	103	104	-4	-153
COc1ccc(CNCC(=O)N2CCC3(CC2)OCCO3)cc1	100	104	-16	-36
O=C(c1ccc(S(=O)(=O)N2CCOCC2)cc1)N(Cc1ccccn1)c1nc2ccccc2s1	97	100	2	0

In the list so far, 8 have a thiophene ring, fused or not.
SMILES	PV pol inh	PV pol inh intensity	Mtb MbtI inh	Mtb MenB inh
O=S(=O)(c1ccc2nc(-c3cccs3)c(-c3cccs3)nc2c1)N1CCOCC1	111	121	60	-102
N#Cc1c(NC(=O)COCc2cc(-c3ccco3)on2)sc2c1CCCC2	100	104	71	-13
Cc1ccccc1-c1nc(NC(=O)CSc2ncnc3sc4c(c23)CCC(C)C4)ns1 (configuration not stated)	101	105	-8	-17
COC(=O)c1ccc2c(=O)[nH]c(COC(=O)c3sc4nc5n(c(=O)c4c3C)CCC5)nc2c1	108	122	-6	-13
CC1C/C(=C/c2ccsc2)C(=O)/C(=C/c2ccsc2)C1 (configuration not stated)	99	101	17	-11
C=CCC(=O)c1sc(NC)c(C#N)c1N	109	116	.	-8
CC1CCc2c(sc(NC(=O)CCN3CCOCC3)c2C#N)C1 (configuration not stated)	103	100	4	8
O=C(c1ccc(Br)s1)N1CCCC1	99	103	-3	-8

Next results
SMILES	PV pol inh	PV pol inh intensity	Mtb MbtI inh	Mtb MenB inh
O=C(NC1CC2CCC1C2)c1ccc(CN2CCOCC2)cc1 (configuration not stated)	97	89	14	-7
CCCCN(Cc1ccco1)C(=O)c1noc2c1CCCC2	103	103	7	-23
N#C/C(=C\c1ccccc1Cl)S(=O)(=O)c1ccc(Cl)cc1	108	116	-7	1
Cc1cc(NC(=O)CN2CCCCC2)no1	99	99	5	-14
Cc1cc(N2CCOCC2)nc(SCC(=O)NCc2ccco2)n1	102	106	-4	3
Oc1ccc(Br)cc1-c1nc2ccccc2s1	102	104	-3	.
COc1ccc(-c2cn3c(c2C)-c2ccc(C)n2CC3)cc1	118	152	21	-30
CN(C(=O)c1nc2ncccn2n1)c1ccc(OC(F)(F)F)cc1	109	104	.	-13
COc1ccc2c(CC(=O)OCc3cc(Cl)c4c(c3)OCO4)coc2c1	104	108	-4	-26
CCOC(=O)C1CCN(C(=O)COC(=O)c2ccc(-n3cnnn3)cc2)CC1	102	107	-11	-25
S=C(N/N=C\c1ccco1)Nc1ccccc1	97	100	26	-99
COc1ccc(Nc2cc(C(=O)NCCCN3CCN(C)CC3)c3ccccc3n2)cc1	99	100	7	-19
CCOc1ccc2nc(SCC(=O)O)sc2c1	97	99	16	6
c1ccc(COn2nnc3ccccc32)c(COn2nnc3ccccc32)c1	104	108	-6	-19
CC(C#N)(NC(=O)CSc1nnc(-c2ccc(Br)cc2)n1C1CCCCC1)C1CC1 (configuration not stated)	99	102	-9	-15
Cc1cc(C)nc(SCC(=O)c2c(N)no[n+]2[O-])n1	109	121	.	26
COc1ccc2c(CC(=O)NC3CCCCCC3)coc2c1	105	113	-14	-17
Cc1noc(COc2ccccc2OCC(N)=O)n1	101	103	.	-11
CCc1ccc(-c2nc(SCC(=O)NC(C)(C#N)C(C)C)n[nH]2)cc1 (configuration not stated)	.	.	12	-17
Cc1csc2nc(CSc3nnc(C(C)Oc4ccccc4F)o3)cc(=O)n12 (configuration not stated)	98	93	2	-23
